Assay outcomes: PubChem BioAssay, several laboratories
Autofluor counter – counter-screen for toxin protease inhibitors: compound fluorescence. compound autofluorescence counterscreen, microsphere flow cytometry; active compounds read high. 3.1% of 360,000 active. fluorescence intensity (test concentration not listed);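 active = at least 3 SD above the mean of all compounds, about 16000 in these data; inconclusive = too few beads counted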;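 note: 100 nL of 1 mM stock went into each well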
ugtP null kill – growth inhibition of ugtP-null S. aureus, primary screen, RN4220 ugtP deletion, OD600; 16 h; some inactives read as strong as hits; 0.54% of 330,000 active; growth inhibition, % (concentration not given with the values); AID 1259309, 2017;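 active = z-score under -3 and OD600 up to 0.15 on both plates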;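 note: plate controls were untreated wells for no effect and antibiotic for full effect; wells of about 80 µL received 100 nL stock; the first replicate is given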
PrP UTR inh – inhibition of PrP 5' UTR reporter expression; inhibition, % (test concentration not listed); cell-based PrP 5' UTR mRNA reporter, plate reader; AID 488862, 2010; 0.35% of 340,000 active;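 active = every replicate at 50% or more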;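 note: 0 = median of the neutral control wells; tested in H4 reporter cells; numbers are from one replicate; inactives centre near -14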
RN4220 kill – growth inhibition of S. aureus RN4220, primary screen, OD600 | 16 h | inhibition, % (test concentration not listed) | 0.33% of 330,000 active | AID 1259311, 2017;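 active = z-score of -3 or lower and OD600 up to 0.18 on both plates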;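 note: plate controls were untreated cells for no effect and reference antibiotic for full effect; stock transfer was 100 nL into about 80 µL; one replicate is shown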
Mtb hypoxia inh – PubChem AID 1159583; M. tuberculosis hypoxia-regulated fluorescent reporter, fluorescence; 0.1% of 300,000 active; fluorescence inhibition, % (test concentration not listed);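 active = 35 to 45% if threefold the growth effect, above 45% if 1.5-fold the growth effect; inactive = the rest, general growth blockers included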;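 note: wells of about 50 µL received 100 nL stock; 0% = vehicle wells and 100% = reference inhibitor wells; whole bacteria with a GFP reporter of the hypoxia response; strong numbers were not always called active; many hits fall short of the cut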
BJeLR viability – MLPCN primary cell-based screen for lethality selective to Ras in HRASV12 cells; BJeLR (HRASV12) viability, CellTiter-Glo ATP luminescence, 48 h; reference of the scale not given here; inhibition, % (no concentration beside the values); 0.17% of 300,000 active;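 active = replicate mean above 50%; inconclusive = above 50% but judged a plate artefact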;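 note: 50 nL library stock added to about 25 µL; numbers are from one replicate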
Mtb hypoxia inh growth – second read-out of Mtb hypoxia inh, no call of its own (marks repeat the call); growth inhibition, %; measured here: M. tuberculosis growth (absorbance);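 0% = vehicle and 100% = reference antibiotic; read after six days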
Starred values were filed as active, the others as inactive; ? = inconclusive; nt = not tested or not shown.

1	CCc1ccc(/C(C)=N/NC(=O)c2c[nH]c3ccccc23)s1
2	O=C(OCc1cc(=O)n2cc(Br)ccc2n1)C1COc2ccccc2O1 (stereo unspecified)
3	O=C(CCNC(=O)c1ccc([N+](=O)[O-])cc1)Nc1ccc(F)c(F)c1F
4	C/C(CC(=O)Nc1ccc(Cl)c(Cl)c1)=N\NC(N)=S
5	CCc1ccc(Oc2nnnn2-c2ccc(C(N)=O)cc2)cc1
6	O=C1CSC(=S)N1c1cccnc1
7	Cc1ccc(NC(=O)c2ccccc2OCC(=O)c2ccc(F)cc2)cc1
8	CC(=O)c1ccc(NC(=O)CCn2c(=S)oc3ccccc32)cc1

assay / compound,1,2,3,4,5,6,7,8
Autofluor counter,?,6354,5589,3547,4352,10783,6941,4180
ugtP null kill,nt,8,14,nt,5,-1,nt,4
PrP UTR inh,-15,-11,-19,-5,-15,-17,-15,-14
RN4220 kill,nt,4.6,0.3,nt,2.7,2.8,nt,5.2
Mtb hypoxia inh,nt,5,7,nt,-7,4,nt,15
Mtb hypoxia inh growth,nt,-2,6,nt,-6,4,nt,7
BJeLR viability,-8,2,-13,-17,-8,-5,18,-13

9	Nc1nc(CSc2ccc(Cl)cc2)nc(N2CCCCC2)n1
10	CC(C)Sc1nc2sccc2c(=O)n1-c1ccccc1
11	O=C(O)/C=C/C(=O)N1Cc2cc3ccccc3nc2C1
12	CNC(=O)c1ccccc1S(=O)c1ccccc1C#N (stereo unspecified)
13	COc1ccc(C(=O)NCc2ccc(-c3nc4ccccc4s3)cc2)cc1
14	CCCOc1ccc(N2C(=O)CC(N(Cc3ccc(S(N)(=O)=O)cc3)C(=O)CC)C2=O)cc1 (stereo unspecified)
15	O=C(N/N=C(\CC(=O)c1cccs1)C(F)(F)F)c1cccnc1
16	CCN(C(=O)CN1C(=O)NC2(CCc3ccccc32)C1=O)C1CCCCC1 (stereo unspecified)

assay / compound,9,10,11,12,13,14,15,16
Autofluor counter,4322,3772,4635,4944,7991,2348,4294,4909
ugtP null kill,3,10,3,7,4,0,nt,3
PrP UTR inh,-16,-12,-69,-18,-56,-8,-6,-26
RN4220 kill,74,9.1,4.1,-2.1,-1.3,-12,nt,0.7
Mtb hypoxia inh,7,3,18,nt,10,16,nt,-4
Mtb hypoxia inh growth,17,3,15,nt,1,19,nt,-3
BJeLR viability,nt,7,2,10,2,-6,-1,-2

17	CCOc1cc(S(=O)(=O)N(CC)CC)ccc1Br
18	Cc1onc(-c2ccccc2)c1C(=O)Nc1ccc(S(=O)(=O)N2CCCC2)cc1
19	CCC(C)c1ccc(NC(=O)C2CCN(c3ncccn3)CC2)cc1 (stereo unspecified)
20	COC(=O)C1=C(c2cccc(OC)c2OC)CC2CCC1N2C(=O)NCC1CC1 (stereo unspecified)
21	CN1/C(=C\C(=O)c2ccco2)C(C)(C)c2ccccc21
22	CCOCCSc1nc2c(c(=O)[nH]c(=O)n2C)n1CCCc1ccccc1
23	O=C(COC(=O)c1cc([N+](=O)[O-])ccc1N1CCCC1)Nc1ccccc1OC(F)F
24	Cn1c(=O)c2c(nc(NN=C3CCCCC3)n2C)n(C)c1=O

assay / compound,17,18,19,20,21,22,23,24
Autofluor counter,2057,4343,4063,nt,5895,5892,5828,4822
ugtP null kill,12,-11,3,-7,-10,-2,-3,1
PrP UTR inh,-4,-14,-6,nt,-3,-10,-16,-13
RN4220 kill,0.9,2.0,1.0,5.3,18,2.7,9.7,2.6
Mtb hypoxia inh,nt,-8,-4,5,8,9,13,-6
Mtb hypoxia inh growth,nt,4,14,5,1,-2,4,-1
BJeLR viability,-8,0,11,nt,-4,2,nt,10

25	CCC(CC)NC(=O)CON=C1c2ccccc2-c2ccccc21
26	CC(=O)Nc1ccc(NC(=O)CSc2nccn2Cc2ccc(Cl)cc2)cc1
27	Cc1ccc(-c2nc(C3CCCN(S(=O)(=O)c4ccc(C(F)(F)F)cc4)C3)no2)cc1 (stereo unspecified)
28	CCCN(CCC)CCNC(=O)CN1C(=O)COc2ccc(S(=O)(=O)N3CCOCC3)cc21
29	CCCOc1ccc(C2/C(=C(/O)c3ccc(F)cc3)C(=O)C(=O)N2CCCN(C)C)cc1 (stereo unspecified)
30	CC(=O)N1c2ccc(S(=O)(=O)NCCC(=O)NCc3ccc(F)cc3)cc2CC1C (stereo unspecified)
31	Cc1onc(-c2ccccc2Cl)c1C(=O)NNC(=O)c1cccc(F)c1
32	Cc1ccc(C2(C(F)(F)F)N=C3Sc4cc(C)cc(C)c4N3C(=O)N2)cc1 (stereo unspecified)

assay / compound,25,26,27,28,29,30,31,32
Autofluor counter,10664,6092,2393,4669,3061,5729,3633,3608
ugtP null kill,nt,6,nt,2,1,4,6,39
PrP UTR inh,-11,-23,-9,-12,-11,-10,-30,-7
RN4220 kill,nt,-4.5,nt,1.2,1.6,3.7,8.8,15
Mtb hypoxia inh,nt,3,nt,-11,nt,1,8,8
Mtb hypoxia inh growth,nt,4,nt,1,nt,-10,8,8
BJeLR viability,-15,9,-3,0,-7,7,1,-5

33	C/C(=N\NC(=O)c1cc2ccccc2cc1O)c1ccc(C)o1
34	CCc1ccc(N2C(=O)NC(=O)/C(=C\c3cc(C)n(-c4cc(C(=O)O)cc(C(=O)O)c4)c3C)C2=O)cc1
35	COc1cccc(C=NNC(=O)CCCC(=O)Nc2ccc(Br)cc2)c1
36	O=C1CN(C(=O)c2ccc(Cl)c(S(=O)(=O)N3CCc4ccccc43)c2)c2ccccc2N1
37	Cc1ccc(N/C=C/C(=O)c2cccs2)cc1C
38	CCOC(=O)CN1C(=O)S/C(=C/c2cccc([N+](=O)[O-])c2O)C1=O
39	CCN1CCN(CCn2c(=S)[nH]c3cc4c(cc3c2=O)OCO4)CC1
40	CCOc1ccc(CN2C(=O)c3ccccc3C2C(=O)NC(C)CC)cc1OC (stereo unspecified)

assay / compound,33,34,35,36,37,38,39,40
Autofluor counter,5704,3314,nt,5243,4052,4844,8577,2921
ugtP null kill,nt,nt,-15,15,9,42,2,3
PrP UTR inh,-28,-23,nt,-15,16,-12,-22,-12
RN4220 kill,nt,nt,6.2,7.8,5.3,29,3.5,2.1
Mtb hypoxia inh,nt,nt,8,-1,9,-1,13,-9
Mtb hypoxia inh growth,nt,nt,6,-2,9,-2,2,-9
BJeLR viability,9,-4,nt,-6,21,9,0,-11

41	CCOC(=O)c1sc(=NC(=O)c2ccc(C)c(C)c2)n(C)c1C
42	O=C(c1ccccc1)N1CCN(Cc2cccc(Oc3ccccc3)c2)CC1
43	COc1cc2c(cc1OC)CN(c1ccc([N+](=O)[O-])cc1Cl)CC2
44	Cc1ccc(S(=O)(=O)N2C(c3cccs3)CC=C(C(=O)O)C2c2cccc(Cl)c2)cc1 (stereo unspecified)
45	Nc1nnc(Cc2ccc(Cl)cc2Cl)s1
46	O=C1[C@H]2CCCC[C@H]2C(=O)N1CCCCN1CCN(c2nsc3ccccc23)CC1
47	CCOc1ccc(-c2c(C(=O)N/N=C/c3ccncc3)nnn2-c2nonc2N)cc1
48	CN(C)C(=O)c1ccc(NC(=O)COC(=O)c2cc3c(s2)CCCCC3)cc1

assay / compound,41,42,43,44,45,46,47,48
Autofluor counter,2779,2577,2340,nt,9327,5136,5799,3444
ugtP null kill,6,6,-19,42,-4,nt,nt,-1
PrP UTR inh,-111,-8,3,nt,-28,-18,-15,-15
RN4220 kill,1.6,2.8,-6.1,32,4.8,nt,nt,1.7
Mtb hypoxia inh,9,0,-7,22,3,nt,nt,6
Mtb hypoxia inh growth,7,5,7,9,10,nt,nt,-1
BJeLR viability,-6,-3,-3,nt,-1,9,-4,nt

49	COC(=O)CNC(=O)C(C)NC(=O)CNC(=O)OCc1ccccc1 (stereo unspecified)
50	O=C(CCC1CCCC1)N1CCN(C(=O)C2CC2)CC1
51	CC(C)(C)NC(=S)Nc1ccc(Br)cc1
52	O=C(NC1(O)C(=O)c2ccccc2C1=O)c1ccc(C(F)(F)F)cc1
53	CCN(c1ccccc1)S(=O)(=O)c1ccc(Cl)c(C(=O)OCC(=O)c2[nH]c(C)c(C(C)=O)c2C)c1
54	COCCNC(=S)N1CCc2cc(OC)c(OC)cc2C1COc1ccc(F)cc1 (stereo unspecified)
55	COc1ccc(OC)c(-c2nc(C(=O)NCC3CCCO3)cc3c2[nH]c2ccccc23)c1 (stereo unspecified)
56	COC(=O)c1cccc(C23CC4(C2)C(CN(CC2CCCCC2)C4c2ccccc2)C3c2ccccc2)c1 (stereo unspecified)

assay / compound,49,50,51,52,53,54,55,56
Autofluor counter,2884,3855,22615*,nt,9875,3522,5570,nt
ugtP null kill,7,5,-5,2,32,-6,-10,-3
PrP UTR inh,-19,-19,-28,nt,-16,-15,-13,nt
RN4220 kill,9.3,0.7,-2.8,3.1,11,-7.5,-5.1,0.5
Mtb hypoxia inh,nt,nt,4,-2,-7,-6,nt,4
Mtb hypoxia inh growth,nt,nt,6,0,3,-6,nt,12
BJeLR viability,6,5,2,-10,-17,4,-1,nt

57	CC12COC3(C(=O)Nc4ccc(F)cc4)CC1CCC32C (stereo unspecified)
58	Cc1ccc(NC(=O)c2ccc(CN3CC(=O)N4CCCCC4C3=O)cc2)c(C)c1 (stereo unspecified)
59	COc1ccc(CCNC(=O)CCCn2ncn3c(cc4occc43)c2=O)c(OC)c1
60	Cn1cnnc1SCCC(=O)Nc1ccc(Cl)cc1
61	COc1ccc(CNC(=O)C(C)N2C(=O)COc3ccc(C)cc32)c(OC)c1 (stereo unspecified)
62	O=C(Cn1nc(-c2ccc(Cl)cc2)c2ccccc2c1=O)NN1CCOCC1
63	CC/C(=N\NC(=O)c1c(-c2ccccc2)noc1C)c1ccc(C)o1
64	CC(C)C(NC(=O)c1ccc(Cl)cc1)C(=O)O (stereo unspecified)

assay / compound,57,58,59,60,61,62,63,64
Autofluor counter,2437,5343,5348,5216,4285,nt,2125,9924
ugtP null kill,-1,2,1,-3,-1,-1,nt,1
PrP UTR inh,3,-24,-15,-17,-11,nt,-16,-22
RN4220 kill,4.0,3.0,1.5,4.5,1.9,2.2,nt,1.9
Mtb hypoxia inh,-5,3,0,-3,4,-6,nt,0
Mtb hypoxia inh growth,-9,-4,8,5,4,3,nt,-4
BJeLR viability,-4,-3,-12,1,-7,-1,-2,-8

65	CCCCC(=O)NCCNc1nc2c(c(=O)n(C)c(=O)n2C)n1Cc1ccccc1
66	COc1cc(C(=O)Nc2nnc(C)s2)cc(OC)c1OC
67	O=C(O)c1[nH]c2ccccc2c1NS(=O)(=O)c1ccc(F)cc1
68	CCOC(=O)CSc1nc2ccc(Nc3nc(N4CCOCC4)nc(N4CCOCC4)n3)cc2s1
69	CCOc1cc(C=NNC(=O)c2cccc(S(=O)(=O)N3CCCC3)c2)ccc1OCC(=O)N(C)C
70	CC12CCC(C(=O)N(CCCN3CCN(Cc4ccccc4)CC3)C1=O)C2(C)C (stereo unspecified)
71	CCOC(=O)c1ccc(Nc2ccc([N+](=O)[O-])cn2)cc1
72	CC1=C(C)CC(C(=O)NCc2ccccn2)C(C(=O)O)C1 (stereo unspecified)
73	O=C(COc1ccccc1)N=C1SC2CS(=O)(=O)CC2N1CCc1ccccc1 (stereo unspecified)
74	CN(C)c1cccc(C(=O)NCc2ccc3c(c2)OCO3)c1

assay / compound,65,66,67,68,69,70,71,72,73,74
Autofluor counter,3314,4335,nt,5515,nt,5265,9923,5608,5079,2931
ugtP null kill,-2,-5,24,-3,14,-1,-4,4,4,18
PrP UTR inh,-19,-6,-13,-20,nt,-14,-19,-16,-8,-2
RN4220 kill,-2.2,-14,6.9,5.3,5.4,7.4,6.4,1.7,6.4,5.0
Mtb hypoxia inh,0,2,3,15,15,7,-2,6,7,-6
Mtb hypoxia inh growth,-11,7,2,19,1,-2,5,12,9,-4
BJeLR viability,-19,-4,2,-3,nt,nt,7,8,7,-2

Complete entries as entered above. Order of values: Autofluor counter | ugtP null kill | PrP UTR inh | RN4220 kill | Mtb hypoxia inh | Mtb hypoxia inh growth | BJeLR viability
`CCOC(=O)CSc1nc2ccc(Nc3nc(N4CCOCC4)nc(N4CCOCC4)n3)cc2s1` is entered as 5515 | -3 | -20 | 5.3 | 15 | 19 | -3
`COc1cc(C(=O)Nc2nnc(C)s2)cc(OC)c1OC` is entered as 4335 | -5 | -6 | -14 | 2 | 7 | -4
`O=C(O)c1[nH]c2ccccc2c1NS(=O)(=O)c1ccc(F)cc1` is entered as nt | 24 | -13 | 6.9 | 3 | 2 | 2
`CN(C)c1cccc(C(=O)NCc2ccc3c(c2)OCO3)c1` is entered as 2931 | 18 | -2 | 5.0 | -6 | -4 | -2
